Vaccinia Venus: qHTS for Stage-Specific Inhibitors of Vaccinia Orthopoxvirus: Venus Reporter Primary qHTS; Vaccinia virus Venus reporter expression, fluorescence; Potency, µM (series often up to 36.5 µM), for the others: at the top dose activity change, negative = inhibition, hits mostly inhibitors; 330,000 tested, 0.46% active; AID 720580, 2013; active means well fitted inhibition curve with a large enough effect; inconclusive means small, poorly fitted or top-dose-only effect; inactive means no such curve, though single readings can be large or run the other way; tested in A549 cells; note: nearly all actives have a fitted effect of over 30% in size; inactives centre near -10
Vaccinia mCherry: qHTS for Stage-Specific Inhibitors of Vaccinia Orthopoxvirus: mCherry Reporter Primary qHTS | AID 720579, 2013 | Vaccinia virus mCherry reporter infection, fluorescence; about a quarter of the inactives have no number | 310,000 tested, 0.63% active | Potency, µM (top dose mostly 36.5 µM), inactives show at the highest dose activity change, negative = inhibition, hits mostly inhibitors; active = well fitted inhibition curve with a large enough effect; inconclusive = small, poorly fitted or top-dose-only effect; inactive = no such curve, though single readings can be large or run the other way; tested in A549 cells; note: nearly all actives have a fitted effect of over 35% in size; inactives centre near -10
Starred values were filed as active, the others as inactive; i = inactive; ? = inconclusive; . = no result given; & = joins results of further samples; [ ] = dose if it differs, or a comment. % is set by controls: 0 for no effect and ±100 for the full control effect; potency is the fitted concentration of half-maximal effect. No enrichment for hits, and some 0.86% of all compounds hit somewhere here.

SMILES | Vaccinia Venus | Vaccinia mCherry
CSCCC(c1nc2ccccc2[nH]1)n1c(-c2cc(C(F)(F)F)cc(C(F)(F)F)c2)nc2ccccc21 (stereo not given) | ? | ?
COc1ccc(Cc2c(-c3ccco3)nc3ccc(Cl)cn23)c(C)c1 | -9.8% | i
CCN(CC)c1ccc(/C=C/c2ccncc2)cc1 | . | 5.9%
[O-]/C(=C(\C(=S)Nc1ccccc1F)[n+]1ccccc1)c1ccc(OC(F)F)cc1 | -2.0% | -9.5%
CCCOc1ccc(N2C(=O)CC(N(Cc3ccco3)C(=O)CCC(=O)O)C2=O)cc1 (stereo not given) | -10.6% | -1.9%
Cc1ccc(CNC(=O)c2cnc(N3CCCCC3)c3ccccc23)cc1 | -13.1% | -9.5%
C1=Nc2ccccc2/C1=C/c1c[nH]c2ccccc12 | 21.1% | -17.1%
NCCCCCc1cn([C@@H](CCC(=O)O)C(=O)NCCCCCCCCCCC(=O)N2CCNCC2)nn1 | 0.9% | -24.9%
O=C(C(=O)N1CCCCC1)c1c(-c2ccccc2)[nH]c2ccccc12 | -21.5% | i
Cc1ccc(OCCOc2cccc3ccc(C)nc23)c([N+](=O)[O-])c1 | -10.2% | -27.2%

Quoted at random: 2 entries already listed.
SMILES | Vaccinia Venus | Vaccinia mCherry
O=C(C(=O)N1CCCCC1)c1c(-c2ccccc2)[nH]c2ccccc12 | -21.5% | i
CCCOc1ccc(N2C(=O)CC(N(Cc3ccco3)C(=O)CCC(=O)O)C2=O)cc1 (stereo not given) | -10.6% | -1.9%

(cont.)
SMILES | Vaccinia Venus | Vaccinia mCherry
COc1ccccc1NNC(=O)C(O)(c1ccccc1)c1ccccc1 | -5.2% | -18.3%
Nc1[nH]c(C(=O)c2ccccc2)c(-c2ccc([N+](=O)[O-])cc2)c1C(=O)NCCc1c[nH]c2ccccc12 | -13.8% | -17.2%
Cc1ccc(C(=O)N/N=C/c2cc(C)n(-c3ccc(Br)cc3)c2C)cc1[N+](=O)[O-] | 0.3% | -9.3%
Cc1ccc(N/C=C2\C(=O)C3(C)CCC2C3(C)C)cc1C (stereo not given) | 5.4% | -15.0%
CCS(=O)(=O)N1CCN(Cc2nc3ccccc3c(=O)[nH]2)CC1 | -0.5% | -16.0%
Cc1c(CC(=O)O)c(=O)oc2c(C)c(OCc3ccccc3Br)ccc12 | -10.1% | -11.6%
CCCCc1ccc(NC(=O)CSc2nnc3[nH]c(=O)cc(C)n23)cc1 | -5.1% | -11.6%
CCN(CC(=O)NCc1cccs1)C(=O)c1cc(S(=O)(=O)NCc2ccccc2)ccc1C | -14.3% | -21.4%
CC1=CSC2=NC(=O)/C(=C\c3cccn3-c3ccccc3)C(=N)N12 | -6.2% | i
CCC(=O)NC1CCN(C(=S)NC)CC1 | 1.7% | i

Additional results:
SMILES | Vaccinia Venus | Vaccinia mCherry
COc1ccc(N=C(C)c2c(O)n(C3CCCCC3)c(=O)[nH]c2=O)c(OC)c1 | -8.5% | -12.2%
CCOC(=O)c1ccc(NC(=O)c2c(NCc3cc(OC)c(OC)cc3OC)sc3c2CCCC3)cc1 | -5.7% | -5.6%
Cc1cccc(C(=O)Nc2ccc(O)c3c(=O)cc(-c4ccccc4Cl)oc23)c1 | -26.6% | -12.0%
CCOC(=O)C1=C(COC(=O)c2c(OC)cccc2OC)NC(=O)NC1C (stereo not given) | -23.6% | -23.0%
Cc1cc(C)cc(C(=O)NC(=S)Nc2ccc3[nH]c(=O)[nH]c3c2)c1 | -14.5% | i
O=C(NCCc1ccccc1)C(=O)NCC1CCCO1 (stereo not given) | -11.2% | -20.8%
O=C1C=C(c2ccc(F)nc2)CCC1 | -13.3% | i
COC(=O)/C(=C/c1c[nH]c2ccccc12)[N+](=O)[O-] | 12.5% | 5.1%
CCOc1ccc(NC(=O)CCC(=O)Nc2nnc(CC)s2)cc1 | -4.0% | -13.3%
Cc1ccc(CSc2nnc(-c3cccc(S(=O)(=O)N4CCOCC4)c3)n2CC(C)C)cc1 | -21.1% | -4.6%

(continued)
SMILES | Vaccinia Venus | Vaccinia mCherry
Cc1cc(=O)[nH]c2nnc(SCc3ccc(F)cc3)n12 | -5.4% | -5.7%
Cc1cc(C)cc(N2C(=O)NC(=O)/C(=C/c3cccn3-c3ccc(Cl)cc3)C2=O)c1 | 1.9% | i
CCOc1[nH]c(/N=C/c2ccccc2)c(C#N)c1C#N | 50.8%[activator] | -9.7%
Cc1[nH]c2ccccc2c1NC(=O)CN1CCN(C(=O)c2ccco2)CC1 | 9.9% | -0.3%
CC(C)c1ccc(NC(=O)CSC2=Nc3ccccc3C3=NC(CC(=O)NCc4cccs4)C(=O)N23)cc1 (stereo not given) | -10.1% | -17.0%
COc1cc(C2N=C(c3ccccc3)NO2)cc(Br)c1O (stereo not given) | -15.9% | -16.2%
CC(=O)N1CCc2c(sc3c2c(=O)n(Cc2ccccc2)c(=O)n3Cc2ccc(C)cc2)C1 | -2.7% | -5.6%
O=C(Cn1cnc2sc3c(c2c1=O)CCCC3)NCC(=O)Nc1ccc(F)cc1F | -9.4% | i
COc1ccc(-c2cc(CNC(C)=O)on2)cc1 | -6.6% | .
Cc1cc(C)cc(NC(=O)CSc2nc(=O)n(Cc3ccccn3)c3c2CCC3)c1 | ? | ?

Further results follow:
SMILES | Vaccinia Venus | Vaccinia mCherry
CSCC[C@@H](C(=O)Nc1ccc2c(c1)OCCO2)N1Cc2ccccc2C1=O | -21.4% | -5.2%
C[C@H](CO)N1C[C@H](C)[C@@H](CN(C)S(=O)(=O)c2cccc(F)c2)OCc2cn(nn2)CCCC1=O | -12.9% | i
CCn1ncc(CN2CCN(Cc3cccc(OC)c3)C(CCO)C2)c1C (stereo not given) | -12.6% | -10.8%
COCCCNC(=O)CN(CCc1ccccc1)S(=O)(=O)c1ccc(C)cc1 | -5.9% | -0.7%
CC(C)Oc1ccc(S(=O)(=O)N2CCCCC2)cc1NC(=O)C1CSC2(C)CCC(=O)N12 (stereo not given) | -15.7% | -20.4%
O=C(NCc1ccncc1)[C@@H]1CCCN1C(=O)[C@@H]1CCCN1C(=O)c1ccccc1Cl | -18.1% | -3.1%
CC(NC(=O)COC(=O)c1ccc(S(=O)(=O)N2CCOCC2)cc1)c1ccccc1 (stereo not given) | -17.1% | -15.8%
Nc1nnc(SCc2ccc(Cl)cc2)s1 | ? | -18.4%
CC(=O)c1c(C)oc2ccc(NS(=O)(=O)c3ccccc3)cc12 | -11.5% | 5.7%
CS(=O)(=O)c1ncc(Cl)c(C(=O)N2CCN(c3cccc(Cl)c3)CC2)n1 | -9.5%[7.34 µM] | -3.9%[7.34 µM]

(list continues)
SMILES | Vaccinia Venus | Vaccinia mCherry
Cc1cccc(NCc2nc3ccccc3n2CCOc2ccccc2C)c1 | -25.3% | -22.6%
COc1ccccc1N1CC(C(=O)OC(C)C(=O)Nc2ccc(F)cc2)CC1=O (stereo not given) | -16.5% | ?
CCOc1ccc(NC(=O)c2sc3nc4n(c(=O)c3c2C)CCC4)cc1 | 1.1%&6.2% | -3.7%&2.1%
O=c1cc(-c2ccccc2)c2ccc3c(c2o1)CN(Cc1cccc(Cl)c1)CO3 | -12.5% | i
CC(C)(C)S(=O)(=O)/C(C#N)=C/c1sccc1C1OCCO1 | -3.8% | i
CSc1ncnc2c1ncn2CCCNCC(C)c1ccccc1 (stereo not given) | -6.1% | -13.5%
O=C(c1cccc(S(=O)(=O)N2CCc3ccccc32)c1)N1CCCC(C(F)(F)F)C1 (stereo not given) | -1.5% | -7.6%
Cc1ccc(S(=O)(=O)Oc2ccc(/C=C(/NC(=O)c3ccccc3)C(=O)O)cc2)cc1 | -8.3% | i
CC(C)(CO)CNC1CCCN(C2Cc3ccccc3C2)C1 (stereo not given) | -8.1% | -15.3%
CCC1CCCCN1Cc1nc2c(c(=O)n(C)c(=O)n2C)n1Cc1ccccc1 (stereo not given) | -3.0% | 4.8%

The results go on.
SMILES | Vaccinia Venus | Vaccinia mCherry
COc1ccc(C(=O)CNc2ccc(C)cc2C)cc1 | -13.9% | -18.9%
CCOC(=O)C(=O)/C(=C\N(C)C)c1onc(-c2c(Cl)cccc2Cl)c1C(=O)OC | 15.1% | .
CCNc1nc(NCC)n2c(SCc3ccc(F)cc3)nnc2n1 | -23.3% | .
CCC(Sc1nccn1C)C(=O)Nc1ccc(Cl)cn1 (stereo not given) | -9.7% | i
Nc1cccc2c1C(=O)N(C(=O)c1ccco1)C2=O | -2.4% | i
COc1ccc(CN2CCN(C(=O)COc3ccc4ccccc4c3)CC2)c(OC)c1 | -12.4%[7.34 µM] | -19.6%[7.34 µM]
CCC(C)[C@H](NC(=O)N1CCC(C)CC1)C(=O)O (stereo not given in full) | -5.9% | -15.8%
CCC(=O)Nc1cc(C)c(NC(=O)C23CC4CC(CC(C4)C2)C3)cn1 | -12.8% | -11.8%
O=C(Nc1ccc(N2CCOCC2)cc1)C1CCN(S(=O)(=O)c2cccc(C(F)(F)F)c2)CC1 | ? | ?
O=C(CSc1nnc(SCc2ccc(Cl)cc2)s1)N/N=C/c1ccc(Cl)cc1Cl | ? | -10.7%

Next part.
SMILES | Vaccinia Venus | Vaccinia mCherry
Nc1c(-c2ccc(F)c(F)c2)nc2ncccn12 | -3.2% | ?
FC(F)(F)c1ccccc1Cc1c(-c2ccc(Cl)cc2)nc2ccc(Cl)cn12 | -2.5% | i
CC(=O)c1ccc(NC(=O)CSc2nnc(-c3ccco3)o2)cc1 | -1.4% | 9.8%
Cc1ccc2nc(COc3ccccc3NC(=O)Nc3ccc(F)c(Cl)c3)cc(=O)n2c1 | -19.8% | -14.6%
CCN1C[C@]2(COC)CC[C@H](OC)[C@@]34C5C[C@@H]6[C@@H](OC)C[C@@]7(OCO[C@@]7([C@@H](O)C23)[C@@H]14)C5[C@H]6OC (stereo not given in full) | -9.2% | -19.1%
C=CCc1c(C)nc(N2CCSCC2)[nH]c1=O | -11.8% | i
CCCCN1C[C@H](C)[C@@H](CC(=O)Nc2ccccc2)C1=O | -19.0% | i
COC(=O)/C=C1/SC(=Nc2ccc(C)cc2C)NC1=O | -8.3% | .
Cn1c(=O)c2[nH]c(CSCc3ccccc3)nc2n(C)c1=O | -6.4% | i
Cc1c(C)c(C)c(S(=O)(=O)N2CCC3(CC2)OCCO3)c(C)c1C | -14.6% | -16.0%

Carrying on.
SMILES | Vaccinia Venus | Vaccinia mCherry
O=C(C1=C(O)C(=O)N(CCc2ccccc2)C1c1cccs1)c1ccco1 (stereo not given) | -16.8% | i
CC(C)n1nnc2c(=O)oc3ccccc3c21 | 0.8% | -12.2%
Cc1ccc(C23CC4CC(CC(C(=O)OCC(=O)NC5CCS(=O)(=O)C5)(C4)C2)C3)cc1 (stereo not given) | -4.4% | i
O=C(O)c1ccc(NC2OC[C@@H](O)[C@H](O)[C@H]2O)cc1 (stereo not given in full) | -3.9% | -13.3%
C/C(=N\NC(=S)Nc1ccccc1C)C1Cc2ccccc2C(=O)O1 (stereo not given) | -5.9% | ?
CCCCCCc1cc2cc(C(=O)Nc3cccc(OC)c3)c(=O)oc2cc1O | 16.4% | 11.0%
CCOC(=O)c1sc(NC(=O)c2cc(-c3ccc(C)cc3)nc3ccccc23)c(C#N)c1C | -11.9% | -16.5%
Cc1ccnc(SCC(=O)c2ccc(Br)s2)n1 | 8.4% | i
Cn1cc(SCC(=O)Nc2nccs2)c2ccccc21 | -4.9% | -4.3%
CCC(C)NC(=O)c1ccc2nc(CCc3ccccc3)oc2c1 (stereo not given) | -10.6% | -10.9%

Continued:
SMILES | Vaccinia Venus | Vaccinia mCherry
C=C(C)C(=O)Nc1cccc(C2=NOC3(C2)C[C@@H](C(N)=O)N(C(=O)CC(c2ccccc2)c2ccccc2)C3)c1 (stereo not given in full) | -23.7% | -14.5%
Cc1ccccc1CN1C(=O)c2ccccc2S(=O)c2ccc(C(=O)NCc3ccccc3)cc21 (stereo not given) | -14.1% | i
COCCn1nnnc1C(c1cc(OC)ccc1OC)N1CCc2ccccc2C1 (stereo not given) | -18.1% | .
Cc1ccc(S(=O)(=O)NCCc2ccncc2)cc1[N+](=O)[O-] | -6.7% | ?
COCC(=O)N(C)C[C@@H]1Oc2cc(-c3ccc(F)cc3)ccc2S(=O)(=O)N([C@H](C)CO)C[C@H]1C | -14.0% | 11.7%
CC(C)(C)c1ccc(S(=O)(=O)c2cn(CC(=O)Nc3ccccc3)c3ccccc3c2=O)cc1 | -25.7% | -28.8%
COc1ccc(/C=C2\SC(=S)N(CC(=O)OCC(=O)Nc3ccc(C)cc3Cl)C2=O)cc1 | -0.6% | i
COc1cccc(-c2cc(C(=O)NCCc3ccc(C)cc3)[nH]n2)c1 | -0.2% | -7.0%
O=C(Nc1nnc(-c2ccccc2)o1)c1cc(-c2cccs2)nc2ccccc12 | ? | -18.8%
COc1ccc(CCN(C)C(=O)Cc2ccc(-c3ccccc3)cc2)cc1OC | -19.3% | ?

(further entries)
SMILES | Vaccinia Venus | Vaccinia mCherry
O=C1/C(=C\c2ccc(Cl)c(Cl)c2)N2CCC1CC2 | 0.7%[7.34 µM] | i[7.34 µM]
CCOc1ccc(C(=O)C(CN2CCOCC2)c2ccccc2)cc1 (stereo not given) | ? | 10µM*
COc1cccc(CC2(CO)CCCN(Cc3ccc(-c4ccco4)cc3)C2)c1 (stereo not given) | -7.5% | i
CN(C)S(=O)(=O)c1ccc(C(=O)Nc2cc3c(cc2C(=O)O)OCCCO3)cc1 | -6.1% | -12.6%

High-throughput results: PubChem BioAssay, National Center for Advancing Translational Sciences (NCATS)
